FGF22 binding: binders of human FGF22 protein, primary screen, FGF22 synaptogenesis inhibitor project, biophysical, thermal shift, single point; Fibroblast growth factor 22 (Homo sapiens), Q9HCT0; recombinant FGF22 thermal shift, SYPRO orange fluorescence; percent of sucrose octasulfate shift, DMSO zero; calls only at 9.99 µM; 340,000 compounds, 1.5% hits;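 active = melting point raised past a set limit in the mean and every replicate; three in four hits are not shown here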
Target sequence (Q9HCT0 whole entry, looked up): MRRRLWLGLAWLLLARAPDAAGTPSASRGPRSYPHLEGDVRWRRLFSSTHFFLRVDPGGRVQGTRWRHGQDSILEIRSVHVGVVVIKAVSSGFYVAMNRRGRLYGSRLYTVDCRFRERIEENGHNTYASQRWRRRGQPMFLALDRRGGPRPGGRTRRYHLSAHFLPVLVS
Calls only; i = inactive; + = active, no number. Not all compounds are listed; the hit share may differ from the screen's.

C[C@@H]1CN([C@H](C)CO)C(=O)c2cc(NC(=O)Nc3ccc4c(c3)OCO4)ccc2O[C@H]1CN(C)Cc1ccc(Oc2ccccc2)cc1
  FGF22 binding = i

COc1ccccc1NC(=O)N[C@H]1CC[C@@H](CCNS(=O)(=O)c2ccc(Cl)cc2)O[C@H]1CO
  FGF22 binding = i

C[C@@H]1CN([C@@H](C)CO)C(=O)c2cccc(NS(C)(=O)=O)c2O[C@H]1CN(C)C(=O)NC1CCCCC1
  FGF22 binding = i

COc1ccccc1-c1ccc2n(c1=O)C[C@H]1[C@H](CO)[C@@H](C(=O)N[C@H](C)c3ccccc3)[C@@H]2N1C
  FGF22 binding = i

C[C@@H]1CN([C@H](C)CO)C(=O)Cc2cc(NC(=O)C3CCCCC3)ccc2O[C@@H]1CN(C)Cc1ccccc1
  FGF22 binding = i

C[C@@H]1CN([C@@H](C)CO)C(=O)c2cccc(NS(=O)(=O)c3cn(C)cn3)c2O[C@@H]1CN(C)Cc1ccc(C(F)(F)F)cc1
  FGF22 binding = i

CCC(=O)N1CC(=O)N2[C@H](CO)[C@@H](c3ccc(-c4ccccc4C)cc3)[C@H]2C1
  FGF22 binding = i

CN1C(=O)c2cc(NC(=O)c3ccccc3)ccc2OC[C@@H]2O[C@@H](CC(=O)NC3CCCC3)CC[C@H]21
  FGF22 binding = i

CCCNC(=O)N1C[C@H]2[C@@H](c3ccccc31)[C@H](CO)N2C(=O)Nc1ccccc1
  FGF22 binding = i

CC(=O)N1[C@H](CO)[C@@H](c2ccc(-c3ccccc3F)cc2)C12CN(CC1CCOCC1)C2
  FGF22 binding = i

C[C@H](CO)N1C[C@H](C)[C@H](CN(C)C(=O)Nc2cc(F)ccc2F)Oc2cc(-c3cccc(F)c3)ccc2S1(=O)=O
  FGF22 binding = i

COc1ccccc1S(=O)(=O)N[C@H]1CC[C@H](CC(=O)N2CCCCC2)O[C@H]1CO
  FGF22 binding = i

CCCNC(=O)[C@H]1[C@H](CO)[C@H]2Cn3c(ccc(C4=CCCC4)c3=O)[C@H]2N1C(=O)c1cnccn1
  FGF22 binding = i

O=C(C[C@@H]1C=C[C@H](NC(=O)C2CCC2)[C@@H](CO)O1)NCCCN1CCOCC1
  FGF22 binding = i

O=C(CC1CC1)Nc1ccc2c(c1)[C@@H]1C[C@@H](CC(=O)NC3CCCC3)O[C@H](CO)[C@@H]1O2
  FGF22 binding = i

CCCNC(=O)N(C)C[C@@H]1Oc2ncc(C#CC3CCCCC3)cc2C(=O)N([C@H](C)CO)C[C@H]1C
  FGF22 binding = i

CCNC(=O)[C@@H]1[C@@H](CO)[C@@H]2Cn3c(ccc(-c4cncnc4)c3=O)[C@@H]2N1C(=O)NC1CCCC1
  FGF22 binding = i

O=C(CC1CC1)N1CC[C@@H]2[C@H]1c1cc(-c3cccc(F)c3)ccc1N[C@@H]2CO
  FGF22 binding = i

CN1CCN(C(=O)C[C@@H]2CC[C@H]3[C@@H](COC[C@H](O)CN3Cc3cccc(-c4ccncc4)c3)O2)CC1
  FGF22 binding = i

CCNC(=O)[C@H]1[C@H](CO)[C@H]2Cn3c(ccc(-c4ccccc4)c3=O)[C@@H]1N2C(=O)c1ccccn1
  FGF22 binding = i

COc1ccccc1S(=O)(=O)N[C@@H]1CC[C@@H](CC(=O)N2CCOCC2)O[C@H]1CO
  FGF22 binding = i

CCCC(=O)Nc1ccc2c(c1)C(=O)N(C)[C@@H]1CC[C@@H](CC(=O)NCCc3ccncc3)O[C@@H]1CO2
  FGF22 binding = i

COCC(=O)N1CC2(C1)[C@H](c1ccccc1)[C@@H](CO)N2C(=O)c1ccncc1
  FGF22 binding = i

COCc1cn([C@@H]2C[C@@H]3O[C@@H](CO)CC[C@@H]3O[C@@H]2CCc2ccc(-c3ccc(OC)cc3)cc2)nn1
  FGF22 binding = i

COc1ccc(NC(=O)Nc2ccc3c(c2)CC(=O)N([C@@H](C)CO)C[C@@H](C)[C@@H](CN(C)S(=O)(=O)c2ccccc2)O3)cc1
  FGF22 binding = i

CCNC(=O)Nc1ccc2c(c1)C(=O)N(C)[C@@H]1CC[C@@H](CC(=O)NCC3CC3)O[C@@H]1CO2
  FGF22 binding = i

C[C@@H]1CCCCO[C@H](CN(C)Cc2ccc(Cl)c(Cl)c2)[C@H](C)CN([C@@H](C)CO)C(=O)c2cc(NS(=O)(=O)c3cn(C)cn3)ccc2O1
  FGF22 binding = i

C[C@H](CO)N1C[C@H](C)[C@@H](CN(C)Cc2cccc(C(=O)O)c2)Oc2ncc(-c3ccccc3F)cc2C1=O
  FGF22 binding = i

CO[C@@H]1CN(C)C(=O)c2ccc(NS(=O)(=O)c3cn(C)cn3)cc2OC[C@@H](C)NC[C@H]1C
  FGF22 binding = i

O=C(C[C@@H]1CC[C@@H]2[C@H](COC[C@H](O)CN2C(=O)Nc2ccc(Cl)c(Cl)c2)O1)NCc1ccc(F)cc1
  FGF22 binding = i

Cc1ccc(S(=O)(=O)N(C)C[C@@H]2Oc3ccc(NC(=O)Nc4ccccc4)cc3CC(=O)N([C@@H](C)CO)C[C@H]2C)cc1
  FGF22 binding = i

CC(=O)N1CC(=O)N2[C@H](C1)[C@H](c1ccc(-c3ccc(C)cc3)cc1)[C@@H]2CO
  FGF22 binding = i

OC(CSc1nc2ccccc2s1)CC(O)c1ccccc1 (stereo not drawn)
  FGF22 binding = i

C[C@H](CO)N1C[C@H](C)[C@H](CN(C)S(=O)(=O)c2ccc(Cl)cc2)OCCCC[C@H](C)Oc2ccc(NC(=O)NC3CCCCC3)cc2C1=O
  FGF22 binding = i

Cc1ccc(S(=O)(=O)Nc2cccc3c2O[C@@H](CN(C)C(=O)NC(C)C)[C@H](C)CN([C@H](C)CO)C3=O)cc1
  FGF22 binding = i

C[C@@H]1CN([C@H](C)CO)C(=O)c2c(c3ccccc3n2C)-c2ccccc2CO[C@H]1CN(C)C(=O)c1ccncc1
  FGF22 binding = i

C[C@H](CO)N1C[C@H](C)[C@H](CN(C)S(=O)(=O)c2ccc(F)cc2)Oc2c(NC(=O)Nc3ccc4c(c3)OCO4)cccc2C1=O
  FGF22 binding = i

COc1cc(CO)cc(I)c1O[C@H]1C=C(C(=O)NCCO)C[C@@H](N(CC2CCCCC2)C(=O)c2cc3ccccc3oc2=O)[C@@H]1O
  FGF22 binding = i

O=C(c1ccccc1)N1C[C@@H]2[C@H](c3ccccc31)[C@H](CO)N2C(=O)Nc1ccccc1Cl
  FGF22 binding = i

CC(=O)N(C)C[C@H]1Oc2ncc(-c3cccc(F)c3)cc2C(=O)N([C@@H](C)CO)C[C@H]1C
  FGF22 binding = i

CNC[C@H]1Oc2ccc(NS(=O)(=O)c3ccc(Cl)cc3)cc2CC(=O)N([C@H](C)CO)C[C@@H]1C
  FGF22 binding = i

CC(C)NC(=O)Nc1ccc2c(c1)CC(=O)N([C@H](C)CO)C[C@@H](C)[C@H](CN(C)Cc1ccc(C(=O)Nc3ccccc3N)cc1)O2
  FGF22 binding = i

CC(C)NC(=O)N1[C@@H](CO)[C@@H]2c3ccccc3N(C(=O)Nc3cccc(Cl)c3)C[C@@H]21
  FGF22 binding = i

C[C@H]1CN([C@@H](C)CO)S(=O)(=O)c2ccc(-c3ccc(F)cc3)cc2O[C@@H]1CN(C)S(C)(=O)=O
  FGF22 binding = i

C[C@@H]1CN([C@@H](C)CO)C(=O)Cc2cc(NS(=O)(=O)c3ccc(Cl)cc3)ccc2O[C@@H]1CN(C)C(=O)Nc1ccc(C(F)(F)F)cc1
  FGF22 binding = i

CN1[C@H](C(=O)NC2Cc3ccccc3C2)[C@@H](CO)[C@@H]2Cn3c(ccc(-c4ccncc4)c3=O)[C@@H]21
  FGF22 binding = i

CCCNC(=O)C[C@@H]1CC[C@H]2[C@@H](COC[C@H](O)CN2C(=O)Nc2c(C)noc2C)O1
  FGF22 binding = i

COc1ccc(S(=O)(=O)Nc2ccc3c(c2)CC(=O)N([C@@H](C)CO)C[C@@H](C)[C@@H](CN(C)S(=O)(=O)c2ccccc2)O3)cc1
  FGF22 binding = i

C[C@@H]1CN([C@H](C)CO)C(=O)c2cccc(NC(=O)c3cnccn3)c2O[C@H]1CN(C)Cc1ccc2c(c1)OCO2
  FGF22 binding = i

N#C[C@H]1[C@@H](c2ccc(-c3cccc(F)c3)cc2)[C@@H](CO)N1C(=O)c1cccnc1
  FGF22 binding = i

CCC(=O)N(C)C[C@H]1Oc2ncc(-c3ccc(C#N)cc3)cc2C(=O)N([C@H](C)CO)C[C@@H]1C
  FGF22 binding = i

CCCc1cn(CC[C@@H]2CC[C@@H](NS(=O)(=O)c3ccccc3Cl)[C@@H](CO)O2)nn1
  FGF22 binding = i

COc1cccc(-c2ccc3n(c2=O)C[C@@H]2[C@@H](CO)[C@H](C(=O)NCCN4CCCCC4)N(C)[C@H]32)c1
  FGF22 binding = i

O=C(c1ccccc1F)N1CC(=O)N2[C@@H](CO)[C@H](c3ccc(-c4ccc(F)cc4)cc3)[C@@H]2C1
  FGF22 binding = +

O=C(C[C@H]1C=C[C@H](NC(=O)C2CC2)[C@H](CO)O1)NCc1ccccc1Cl
  FGF22 binding = i

COc1ccc(NC(=O)N[C@H]2CC[C@@H](CCNC(=O)Cc3ccncc3)O[C@@H]2CO)cc1
  FGF22 binding = i

C[C@H]1CCCCO[C@@H](CN(C)Cc2ccccc2)[C@@H](C)CN([C@@H](C)CO)C(=O)c2cc(NS(=O)(=O)c3cccs3)ccc2O1
  FGF22 binding = i

Cc1ccc(-c2cnc3c(c2)C(=O)N([C@@H](C)CO)C[C@H](C)[C@@H](CN(C)Cc2ccccc2F)O3)cc1
  FGF22 binding = i

CC(C)NC(=O)NCC[C@H]1CC[C@@H](NS(=O)(=O)c2ccc(-c3ccccc3)cc2)[C@H](CO)O1
  FGF22 binding = i

CC(C)NC(=O)Nc1ccc2c(c1)CC(=O)N([C@H](C)CO)C[C@H](C)[C@@H](CN(C)Cc1ccc(C(=O)Nc3ccccc3N)cc1)O2
  FGF22 binding = i

Some of the entries above, reformatted:
Structure	FGF22 binding
Cc1ccc(-c2cnc3c(c2)C(=O)N([C@@H](C)CO)C[C@H](C)[C@@H](CN(C)Cc2ccccc2F)O3)cc1	i
CC(C)NC(=O)NCC[C@H]1CC[C@@H](NS(=O)(=O)c2ccc(-c3ccccc3)cc2)[C@H](CO)O1	i
CC(C)NC(=O)Nc1ccc2c(c1)CC(=O)N([C@H](C)CO)C[C@H](C)[C@@H](CN(C)Cc1ccc(C(=O)Nc3ccccc3N)cc1)O2	i

Following part.
CO[C@@H]1CN(C)C(=O)c2ccc(NS(=O)(=O)CC(F)(F)F)cc2OC[C@@H](C)N(CCC(F)(F)F)C[C@H]1C
  FGF22 binding = i

CC(C)NC(=O)N(C)C[C@@H]1Oc2cc(-c3cncnc3)ccc2S(=O)(=O)N([C@@H](C)CO)C[C@@H]1C
  FGF22 binding = i

CCCNC(=O)C[C@@H]1CC[C@@H]2[C@H](COC[C@H](O)CN2C(=O)Nc2ccc3c(c2)OCO3)O1
  FGF22 binding = i

Cc1ccc(S(=O)(=O)N(C)C[C@@H]2OCCCC[C@H](C)Oc3ccc(NS(C)(=O)=O)cc3C(=O)N([C@H](C)CO)C[C@@H]2C)cc1
  FGF22 binding = i

Cc1ccc(S(=O)(=O)Nc2ccc3c(c2)C(=O)N([C@H](C)CO)C[C@@H](C)[C@H](CN(C)Cc2ccc(C(=O)O)cc2)O3)cc1
  FGF22 binding = i

CCCC#Cc1ccc2c(c1)O[C@H](CN(C)C(=O)NC(C)C)[C@H](C)CN([C@H](C)CO)S2(=O)=O
  FGF22 binding = i

C[C@@H]1CN([C@@H](C)CO)C(=O)c2cc(C3=CCCC3)cnc2O[C@H]1CN(C)Cc1ccc(F)cc1
  FGF22 binding = i

CCCC(=O)Nc1ccc2c(c1)OC[C@H](C)N(CCC)C[C@@H](C)[C@@H](OC)CN(C)C2=O
  FGF22 binding = i

CCC(=O)N1[C@@H](CO)[C@@H](c2ccc(-c3ccccc3)cc2)[C@@H]1CN(CC)C(C)=O
  FGF22 binding = i

C=CCNC(=O)[C@@H]1[C@H]2C(=O)O[C@H](c3ccccc3)[C@H](c3ccccc3)N2[C@H](c2ccccc2OCCO)[C@@]12C(=O)N(C(=O)OCCOC)c1ccc(C#CC3=CCCCC3)cc12
  FGF22 binding = i

O=S(=O)(c1ccccc1)N1CCCCN2[C@H](C1)[C@H](c1ccc(-c3ccccc3F)cc1)[C@@H]2CO
  FGF22 binding = i

COc1cccc(NC(=O)N[C@H]2C=C[C@H](CC(=O)N3CCOCC3)O[C@@H]2CO)c1
  FGF22 binding = i

Cc1noc(C)c1NC(=O)N(C)C[C@H]1Oc2ccc(NC(=O)CCN3CCOCC3)cc2CC(=O)N([C@H](C)CO)C[C@H]1C
  FGF22 binding = i

OC[C@@H]1[C@@H](c2ccc(/C=C/c3ccccc3)cc2)[C@@H]2CN(Cc3cncnc3)CCCCN12
  FGF22 binding = i

C[C@@H]1CN([C@@H](C)CO)C(=O)c2cccc(N(C)C)c2O[C@@H]1CN(C)S(C)(=O)=O
  FGF22 binding = i

C[C@@H]1CN([C@H](C)CO)C(=O)c2cccc(NC(=O)CCCCCC(=O)Nc3ccccc3N)c2O[C@@H]1CN(C)S(=O)(=O)c1cccs1
  FGF22 binding = i

O=C(C[C@@H]1CC[C@H]2[C@@H](COC[C@@H](O)CN2Cc2ccc(Cl)cc2)O1)NCc1cccc(F)c1
  FGF22 binding = i

C[C@@H]1CN([C@H](C)CO)C(=O)c2cccc(NS(=O)(=O)c3ccc(F)cc3)c2O[C@@H]1CN(C)C(=O)Nc1cccc2ccccc12
  FGF22 binding = i

N#C[C@H]1[C@@H](c2ccc(C3=CCCCC3)cc2)[C@H](CO)N1C(=O)c1ccccn1
  FGF22 binding = i

C[C@@H]1CN([C@@H](C)CO)C(=O)c2cc(NC(=O)Nc3cccc4ccccc34)ccc2O[C@@H]1CN(C)S(=O)(=O)c1ccc(F)cc1
  FGF22 binding = i

O=C(C1CCCCC1)N1CC2(C1)[C@@H](c1ccccc1)[C@H](CO)N2Cc1ccccc1F
  FGF22 binding = i

C=CCN1[C@@H](C)[C@@H](c2ccccc2)Oc2c(Cl)cccc2S1(=O)=O
  FGF22 binding = i

CC(=O)Nc1ccc2c(c1)C(=O)N(C)[C@@H]1CC[C@@H](CC(=O)NCc3ccccc3)O[C@@H]1CO2
  FGF22 binding = i

COc1ccc(NC(=O)Nc2ccc3c(c2)[C@@H]2C[C@@H](CC(=O)N(C)C)O[C@H](CO)[C@@H]2O3)cc1
  FGF22 binding = i
